Screening data as filed in PubChem BioAssay.
D2 agonist – Beta-Arrestin HTS for Positive Allosteric Modulators of the Human D2 Dopamine Receptor: Agonists | 0.084% of 360,000 active | activation, % (no concentration beside the values) | D(2) dopamine receptor (Homo sapiens), P14416 | AID 624465, 2012 | DiscoveRx PathHunter D2 beta-arrestin, luminescence, 90 min; 100% = 57 uM dopamine signal; in the data active = activation above about 40%; inconclusive = about 15% to 40%; inactive = below about 15%; note: compound concentration not given in the record; the text of the record calls up to 30% inactive
Target sequence (P14416 whole entry, looked up): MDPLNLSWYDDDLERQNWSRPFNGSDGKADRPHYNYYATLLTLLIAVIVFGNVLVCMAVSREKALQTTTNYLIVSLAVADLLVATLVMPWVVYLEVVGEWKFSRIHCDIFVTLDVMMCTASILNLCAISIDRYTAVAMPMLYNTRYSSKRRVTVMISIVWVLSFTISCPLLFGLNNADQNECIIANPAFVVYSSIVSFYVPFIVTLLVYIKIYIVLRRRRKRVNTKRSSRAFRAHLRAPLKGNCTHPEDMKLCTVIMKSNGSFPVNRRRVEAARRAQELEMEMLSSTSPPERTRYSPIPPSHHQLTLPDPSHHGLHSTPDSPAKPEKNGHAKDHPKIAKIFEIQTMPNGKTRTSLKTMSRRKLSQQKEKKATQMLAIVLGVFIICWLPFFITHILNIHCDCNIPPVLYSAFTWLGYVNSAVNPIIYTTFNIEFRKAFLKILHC
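Agonist mode: compounds alone added to overnight-plated D2 PathHunter cells for 90 min at 37 C, with 57 uM final dopamine (EC100) defining full response. Beta-arrestin recruitment detected by chemiluminescent reagent, read after 1 h at ambient temperature.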
TRPML1 ag – qHTS for Agonists of the Human Mucolipin Transient Receptor Potential 1 (TRPML1) | Mucolipin-1 (Homo sapiens), Q9GZU1 | TRPML1-expressing cells, Ca2+ dye fluorescence, FDSS; host cell line not named in the record; reference of the full effect not given here | activation, % (test concentration not listed) | 0.12% of 410,000 active; in the data active = activation above about 50%; inconclusive = about 30% to 50%; inactive = below about 30%; note: 0% is about no effect; the text of the record puts the active cut at 80%
Target sequence (Q9GZU1 whole entry, looked up): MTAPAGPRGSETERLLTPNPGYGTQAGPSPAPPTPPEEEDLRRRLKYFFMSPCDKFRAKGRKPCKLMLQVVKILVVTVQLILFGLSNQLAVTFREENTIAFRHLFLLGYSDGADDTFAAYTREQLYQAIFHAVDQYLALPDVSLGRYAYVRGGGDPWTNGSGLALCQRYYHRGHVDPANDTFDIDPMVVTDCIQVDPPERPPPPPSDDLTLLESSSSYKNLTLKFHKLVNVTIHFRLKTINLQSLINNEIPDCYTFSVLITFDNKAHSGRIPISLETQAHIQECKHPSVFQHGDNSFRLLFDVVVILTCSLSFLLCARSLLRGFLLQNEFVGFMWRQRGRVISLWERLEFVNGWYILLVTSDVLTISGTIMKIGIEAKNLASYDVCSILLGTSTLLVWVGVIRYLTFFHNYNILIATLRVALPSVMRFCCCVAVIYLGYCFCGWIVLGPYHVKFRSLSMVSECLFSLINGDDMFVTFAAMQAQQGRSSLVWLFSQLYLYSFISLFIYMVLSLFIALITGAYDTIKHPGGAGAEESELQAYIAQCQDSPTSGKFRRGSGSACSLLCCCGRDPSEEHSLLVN
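In this qHTS format, compounds were pin-transferred onto Ca8-dye-loaded TRPML1-DL cells induced with Tet overnight, and intracellular Ca2+ fluorescence was recorded kinetically for 110 s after a 10 s baseline. A subsequent 4uM final 54-4 (EC80) addition followed by a second 110 s read served as the antagonist phase.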
TRPML1 blocker – qHTS for Inhibitors of the Human Mucolipin Transient Receptor Potential 1 (TRPML1). Mucolipin-1 (Homo sapiens), Q9GZU1. TRPML1-inducible cells, Ca2+ dye fluorescence, FDSS; active compounds read low; inhibition of EC80 agonist-evoked calcium signal. activity change, negative = inhibition, % (no concentration beside the values). 0.02% of 390,000 active. AID 624415, 2012; in the data active means activity change below about -50%; inconclusive means about -30% to -50%; inactive means above about -30%;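 note: stimulus is agonist 54-4 at its EC80 concentration; % is set by controls: 0 for no effect and ±100 for the full control effect; compound concentration not given in the record; the text of the record puts the active cut at -80%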
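Calcium fluorescence in TRPML1-DL cells induced overnight with Tet: a 110 s read after compound pin addition, then a 110 s antagonist read after challenge with 54-4 at 4 uM final (EC80).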
Six1-Eya2 blk – qHTS Assay for Inhibitors of the Six1/Eya2 Interaction; Homeobox protein SIX1 (Homo sapiens) + Protein phosphatase EYA2 (Homo sapiens), …; AlphaScreen GST-Six1/His-Eya2 binding, biochemical; active compounds read low; control for the full effect not named in the record; activity change, % (test concentration not listed); 0.56% of 360,000 active; AID 651725, 2012; in the data active = activity change below about -65%; inconclusive = about -30% to -65%; inactive = above about -30%; note: % is set by controls: 0 for no effect and ±100 for the full control effect
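GST-Six1 + His-Eya2 (5X stock: 250/500 nM); Tris pH 8.0, 300 mM NaCl, 0.05% BSA, 0.02% Tween 20; GSH donor/Ni acceptor beads; 1 h 37 °C dark; AlphaScreen readout.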
CtBP-E1A inh – qHTS Assay for Inhibitors of the CtBP/E1A Interaction; activity change, % (no concentration beside the values); AID 651724, 2012; CtBP / adenovirus E1A interaction (AlphaScreen); AlphaScreen GST-E1A/His-CtBP binding, 1536-well; active compounds read low; control for the full effect not named in the record; 0.49% of 340,000 active; in the data active means activity change below about -65%; inconclusive means about -30% to -65%; inactive means above about -30%; note: % is set by controls: 0 for no effect and ±100 for the full control effect
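Homogeneous bead-based format: GST-tagged E1A captured on glutathione donor beads, His-tagged CtBP on nickel acceptor beads; compounds precede bead addition by 2 h at 37 °C.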
PINK1 modulator – A Quantitative High throughput Screen to Identify Chemical Modulators of PINK1 Expression; PINK1 immunofluorescence, high-content cytometry, 24 h; Potency, µM (titrated, usually from 76.6 µM), for inactives: at the top dose activation (PINK1 increase), hits mostly activators; 0.2% of 410,000 active; active = well fitted activation curve with a large enough effect; inconclusive = small, poorly fitted or top-dose-only effect; inactive = flat fitted curve, though single readings scatter; cell line not stated here;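 note: potency is the fitted concentration of half-maximal effect; % of control where 0% means no effect; nearly all actives have a fitted effect of over 65% in size; a mitochondrial uncoupler was the plate control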
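Compound titrations (5 concentrations, 24 h) on a stable cell line; DMSO and CCCP controls. Endpoint: fixed-cell PINK1 immunofluorescence with mitochondrial, cell and nuclear markers, scanned by microplate cytometer.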
* marks the source's active call; other numbers are inactive results; ? = inconclusive; / = no result given; & = joins results of further samples; [ ] = remark or other dose.

SMILES	D2 agonist	TRPML1 ag	TRPML1 blocker	Six1-Eya2 blk	CtBP-E1A inh	PINK1 modulator
CCCn1c2ccccc2c2cnn(CC(=O)NC3CCCC(C)C3C)c(=O)c21 (stereo not given)	-0.2	0.2	-2.8	-1.2	/	2.0%
CCOC(=O)CSc1nnc(N)s1	3.7	0.2	-9.7	6.2	8.3	-0.6%
O=C(Nc1ccc(OCC(=O)N2CCOCC2)cc1)Nc1cccc(Cl)c1	-3.5	0.1	-0.7	-4.6	-0.1	1.4%
Cc1ccc2[nH]c(=O)c(C(c3nnnn3CC3CCCO3)N3CCOCC3)cc2c1 (stereo not given)	-2.5	-0.1	5.2	1.0	1.5	2.6%[38.3 µM]
CC1CCN(S(=O)(=O)c2ccc3c4c2CC(=O)N4CC(C)S3)CC1 (stereo not given)	8.3	-0.1	0.8	0.1	7.8	-0.8%
O=[N+]([O-])c1ccccc1Nc1cccnc1	-6.2	-0.3	5.4	-3.9	-12.3	0.6%
CCOC(=O)c1c(NC(=O)c2ccc(-n3cnnn3)cc2)sc2c1CCCC2	-0.4	-0.2	-17.1	6.6	0.4	5.6%
Cc1ccc(S(=O)(=O)Nc2cccc(C(=O)NCC(c3ccco3)N3CCCCC3)c2)cc1F (stereo not given)	-7.6	0.1	-13.0	-2.4	-2.1	1.1%
CCc1ccc(OCC(=O)OC(C)C(=O)NC2CC2)cc1 (stereo not given)	-2.4	-0.6	-6.2	-6.5	-3.2	-0.2%
Cc1nnsc1C(=O)N1CCC(CO)(Cc2ccccc2Cl)CC1	-4.8	0.0	-12.6	-3.3	7.9	-0.5%
Nc1nonc1-n1nnc(C(=O)N/N=C/c2ccccc2)c1CSc1ccc(Cl)cc1	1.0	1.0	0.2	-1.7	11.0	?
Cc1ccc(C(C)C)c(OCCSc2nc3ccccc3n2CC(=O)O)c1	3.0	-0.1	-1.5	-4.6	/	0.7%
CN(C)/C=C1/Oc2c(ccc3ccccc23)C1=O	1.4	0.3	-4.8	-9.0	/	-0.3%
CC1(C)C(=O)N(c2ccccc2)C1c1ccccc1O (stereo not given)	-2.0	1.2	10.6	4.4	-4.3	6.5%
COC(C/C=C\[C@H](O)[C@@H](C)OCc1ccccc1)OC	-3.8	0.0	-18.4	-2.9	/	0.8%
O=C(COC(=O)CNC(=O)c1ccccc1Cl)Nc1ncc(C(F)(F)F)cc1Cl	0.8	-0.9	-3.5	-0.8	9.4	-1.5%
O=C(NCc1ccccn1)C1CCC(=O)N(Cc2ccc(Cl)cc2)C1 (stereo not given)	2.8	-1.3	7.7	-1.8	3.0	-1.9%
CCN(CC)C(=O)CCCC(=O)N(CC)CC	-2.7	0.6	7.1	0.8	1.9	1.0%
NC(=N\N=CCc1ccccc1)/C(N)=N/N=CCc1ccccc1	-0.9	-0.4	5.6	-28.3	-24.5	-1.5%
COc1cc(C(=O)N=c2sccn2C)c([N+](=O)[O-])cc1OC	-1.2	0.8	1.0	5.7	-4.4	1.1%
O=[N+]([O-])c1cc(/C=N/O)ccc1SCc1ccccc1Cl	-2.4	1.3	14.9	-12.2	-14.7	-1.2%[38.3 µM]
COCCNC(=O)C(C(=O)c1ccc(F)cc1)n1cc(C)ccc1=O (stereo not given)	2.1	0.3	4.3	4.9	/	-2.1%
COc1ccc(OCC(=O)N2CCN(S(=O)(=O)c3ccccc3[N+](=O)[O-])CC2)cc1	5.9	2.2	9.5	-13.7	0.0	1.5%
COC(=O)[C@H]1[C@H]2C[C@@H]3c4[nH]c5cc(OC)ccc5c4CCN3C[C@H]2C[C@@H](OC(=O)c2ccc(N)cc2)[C@@H]1OC	4.6	-0.6	3.7	?	-1.4	2.1%
CCN(CC)c1ccc(NC(=O)c2cc(C)nc3c2c(C)nn3-c2cccc(F)c2)c(C)c1	/	-0.3	3.0	/	/	1.7%

Gathered by group: the entries above containing two or more sulfur atoms
SMILES	D2 agonist	TRPML1 ag	TRPML1 blocker	Six1-Eya2 blk	CtBP-E1A inh	PINK1 modulator
CCOC(=O)CSc1nnc(N)s1	3.7	0.2	-9.7	6.2	8.3	-0.6%
CC1CCN(S(=O)(=O)c2ccc3c4c2CC(=O)N4CC(C)S3)CC1 (stereo not given)	8.3	-0.1	0.8	0.1	7.8	-0.8%

Following part.
SMILES	D2 agonist	TRPML1 ag	TRPML1 blocker	Six1-Eya2 blk	CtBP-E1A inh	PINK1 modulator
Oc1ccccc1/C=N/n1c(COc2ccccc2)n[nH]c1=S	-3.9	-1.1	11.1	-14.3	-3.3	0.7%
CCc1ccc(-c2nc(CS(=O)CC(=O)NCc3ccc(F)cc3)c(C)o2)cc1 (stereo not given)	/	0.7	-6.1	/	/	3.3%
CCOC(=O)C1CCN(C2=C(NS(=O)(=O)c3ccc(Br)cc3)C(=O)c3ccccc3C2=O)CC1	-7.0	-0.2	44.0	-79.7*	/	0.2%
O=C(NNC(=O)C1CC1c1ccccc1)c1ccccc1[N+](=O)[O-] (stereo not given)	2.0	-0.1	-7.1	5.4	10.5	-2.4%
COC(=O)C(=C/C=C/c1ccco1)C(=O)OC	-2.6	4.1	-3.1	-1.5	4.5	-1.5%
COc1ccc2cc(-c3cccnc3)ncc2c1	1.9	0.4	10.2	10.5	-11.6	-0.2%
O=C(Nc1ccc(C(=O)N2CCN(c3ccccc3)CC2)cc1)c1nsc2ccccc12	/	-0.7	-10.0	/	/	-1.2%
Cn1c(C(=O)O)c(CC(=O)NCc2cccnc2)c2ccccc21	-2.3	-0.1	-0.5	1.6	2.0	1.0%
CSc1cccc(NC(=O)CCc2ccccc2)c1	0.8	1.7	-3.3	-0.2	-28.4	-1.6%
COc1ccc(C)cc1-n1nnnc1SCc1nc2ccccc2s1	-0.3	0.7	5.7	-1.7	4.4	-0.9%
COc1cccc(OC)c1C(=O)NNC(=O)c1cccnc1	-5.9	0.4	-6.6	8.3	-2.6	2.2%
Cc1ccc(-c2nc3ncccc3o2)cc1NC(=O)c1cccnc1	-7.5	-0.2	-20.2	6.7	-0.9	-0.3%
Cc1ccc2c(cnn2C(=O)CCC(=O)NCc2ccccc2Cl)c1	-8.7	-0.1	23.3	4.1	3.9	-1.0%
Cc1ccc(C(=O)C(C)OC(=O)c2ccc(Cl)nc2)cc1 (stereo not given)	-1.4	0.6	-11.9	16.5	3.5	2.5%
O=C(COc1ccc2c3c(c(=O)oc2c1)CCCC3)NC(Cc1ccc(Cl)cc1)C(=O)O (stereo not given)	-3.7	/	/	-11.0	?	-0.6%
COc1ccc(C2c3[nH]c4ccc(OC)cc4c3CCN2C(=O)Nc2ccccc2)cc1 (stereo not given)	/	0.2	13.5	/	/	-1.5%
CC1(C(=O)NS(=O)(=O)c2cccs2)CCN1C(=O)CCc1ccc(Cl)cc1Cl (stereo not given)	-1.7	-0.4	/	13.0	6.5	0.1%
CC(NC(=O)CN1CCN(C(=O)c2cccs2)CC1)c1ccc(F)cc1F (stereo not given)	-2.3	-0.4	-6.5	2.5	/	0.3%
Cc1c(C(=O)N(C)CCC#N)oc2ccc(S(=O)(=O)N3CCOCC3)cc12	4.6	0.4	-0.6	2.5	7.7	0.2%
CCc1ccccc1N(CC)C(=O)C1CCN(c2ncnc3c2nc2n3CCCCC2)CC1	4.1	0.3&1.4	0.5&1.1	-11.4	/	0.6%&-0.2%
C=C(C)Cn1c(SCC(=O)c2ccccc2)nc2sc3c(c2c1=O)CCCC3	/	2.0	-13.3	/	/	1.2%
O=C1CC(Nc2ccc3ccccc3c2)C(=O)N1Cc1ccccc1 (stereo not given)	-0.4	6.2	-0.4	-2.2	-12.5	-0.8%
CC(=O)N(Cc1cccnc1)c1nc2ccc(F)cc2s1	/	0.7	1.5	/	/	16.1%
CSc1cccc(NC(=O)c2cc(S(=O)(=O)N3CCCCC3)c[nH]2)c1	-2.3	-0.9	11.1	-4.9	2.8	2.0%
Clc1cccc(-c2nc3nc4ccccc4nc3n2Cc2ccco2)c1	-4.0	-0.4	8.4	-4.9	-3.1	4.1%

The list goes on.
SMILES	D2 agonist	TRPML1 ag	TRPML1 blocker	Six1-Eya2 blk	CtBP-E1A inh	PINK1 modulator
Cc1ccc(S(=O)(=O)N(CC(=O)N2CCN(c3ccc(F)cc3)CC2)C2CCCCC2)cc1	1.8	2.3	8.2	-14.0	-12.1	-0.6%
CCOc1ccc(C(=O)NC2CCN(CC(=O)NCc3ccccc3)CC2)cc1	-1.1	0.1	-0.2	-3.3	3.8	-0.5%
C=CC(=O)Nc1cccc(Oc2cc(Cl)nc3[nH]ccc23)c1	0.8	-0.6	5.4	4.6	3.2	-0.6%
COc1ccc(/C=C/c2c(-c3cccc(C)c3)oc3ccc(-c4ccc5c(c4)OCO5)cc23)cc1	-2.8	1.2	-5.7	4.4	-17.8	1.1%
CN(C)C(=O)CSc1nnc(Cc2ccccc2)n1CC1CCCO1 (stereo not given)	-1.5	0.7	8.8	3.9	/	2.3%
Cc1ccccc1-c1nc(CN2CCC(C(=O)NCCCN3CCCC(C)C3)CC2)c(C)o1 (stereo not given)	0.5	-0.2	-7.9	-1.4	-4.7	5.5%
Cc1ccc(C(=O)Nc2ccncc2)c(Cl)c1	0.5	0.7	6.4	-1.6	-1.5	-0.1%
CCC(C)(C)NC(=O)CN(Cc1ccc2c(c1)OCO2)C(=O)CCC(=O)Nc1nccs1	-2.0	0.7	-5.1	0.8	-4.6	1.2%
S=c1[nH]nc(C2CC2)n1Cc1ccco1	-1.2	-0.1	53.0	21.7	32.2	2.3%[38.3 µM]
COC(=O)c1ccc(NC(=O)CN2CCN(c3cccc(Cl)c3)CC2)cc1	1.3	-0.8	-12.1	-13.6	-23.3	1.7%
CCc1ccccc1NC(=O)/C(C#N)=C\c1ccc(Sc2ccccc2)o1	-1.3	10.2	87.5	-21.3	-26.2	0.5%[38.3 µM]
Cn1cc(C2CC(c3ccccc3)=NN2C(=O)c2ccccc2)c2ccccc21 (stereo not given)	-5.8	2.7	10.6	16.3	-6.0	1.0%
Cc1cc(Br)ccc1NC(=O)CCS(=O)(=O)c1cccc2nonc12	2.9	-0.6&-0.3	-10.0&1.7	-1.2	13.8	17.2%&5.7%
O=C(CN1C(=O)CNC1=O)Nc1cccc(C(F)(F)F)c1	-1.3	-0.1	-2.7	1.0	1.5	4.7%[38.3 µM]
CC1CCN(C(=O)c2cc(-c3ccc(Cl)c(Cl)c3)on2)CC1	-1.8	0.9	51.4	5.1	10.0	?

Records listed so far printed as active in Six1-Eya2 blk.
Compound | D2 agonist | TRPML1 blocker | Six1-Eya2 blk | CtBP-E1A inh | PINK1 modulator
CCOC(=O)C1CCN(C2=C(NS(=O)(=O)c3ccc(Br)cc3)C(=O)c3ccccc3C2=O)CC1 | -7.0 | 44.0 | -79.7* | / | 0.2%
